TsaE inh – YjeE (TsaE) inhibition, E. coli | purified YjeE, fluorescence polarisation of a bound ADP probe | 71,000 compounds, 0.05% hits | Potency, µM | P0AF67; active = well fitted falling curve; inconclusive = weaker or top-dose-only fall, or a rising curve; inactive = flat or poorly fitted curve;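 also: top concentration of the series not given in the record; excess ADP was the control for the full effect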
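Fluorescence polarization of a BODIPY Texas Red–ADP probe (2 uM) bound to purified YjeE (10 uM) was read after 15 min room-temperature incubation with compounds. Loss of polarization marks inhibitors; ADP serves as titrated control.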
Bst PK mod – modulators of Bacillus stearothermophilus pyruvate kinase. 51,000 compounds, 1.2% hits. AID 361. Potency, µM. partly purified Bacillus stearothermophilus pyruvate kinase, luminescence ATP production; ribose 5-phosphate activator present at AC10; in the data active means potency below about 11 µM; inconclusive means mostly about 12 µM to 25 µM; inactive means weaker than that;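 the screen sought inhibitors and activators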;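 also: potency is read from the fitted curve at half-maximal effect; scaled between full activation by ribose 5 phosphate and full inhibition by luteolin; about four in five hits inhibit and the cells do not say which; series up to 57 µM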
* = called active by the depositor; i = inactive; ? = inconclusive; . = not tested or not shown. The list is partial; the hit share may differ from the screen's.

SMILES	TsaE inh	Bst PK mod
COC(=O)[C@@]1(Cc2ccc(OC)cc2)[C@H]2c3cc(C(=O)N(C)C)n(CCSCCO)c3C[C@H]2CN1C(=O)c1ccccc1	i	.
Cc1cccc(OCC(=O)N2CCC(N3CCCCCC3)CC2)c1	.	>25.6
COc1ccc2c(c1)c1ncnc(N3CCN(Cc4ccc5c(c4)OCO5)CC3)c1n2C	i	>57
CN(CCCNC(=O)C1CCCN(S(=O)(=O)c2cnc[nH]2)C1)c1ccccc1 (centres undefined)	i	.
Cn1cc(/C(Cc2ccccc2)=N\O)c2ccccc21	i	>57
COCCNc1ncnc2nc[nH]c12	i	>57
COc1cccc(Nc2ncc3ncc(=O)n(C[C@H]4CCCO4)c3n2)c1	i	.
Cc1ccc(CN2CCNC(=O)C2CC(=O)O)cc1 (centres undefined)	i	.
COc1ccc(NC(=O)C2CCC(=O)N2S(=O)(=O)c2ccc(C)cc2)c(OC)c1 (centres undefined)	i	11.3*
Nc1cc(C(=O)N2CCCC2)cc(C(=O)N2CCCC2)c1	i	>57

2 compounds picked at random from the list so far, as already listed:
SMILES	TsaE inh	Bst PK mod
Cn1cc(/C(Cc2ccccc2)=N\O)c2ccccc21	i	>57
COc1ccc2c(c1)c1ncnc(N3CCN(Cc4ccc5c(c4)OCO5)CC3)c1n2C	i	>57

Additional results follow:
SMILES	TsaE inh	Bst PK mod
Cc1cc(C)c(Cn2c(=O)n(CCCC(=O)NCc3ccco3)c(=O)c3ccccc32)c(C)c1	i	>57
O=C(C1CCC1)N1CCN(Cc2ccccc2)CC1	i	>57
O=C(O)CC(c1ccccc1)n1cccc1 (centres undefined)	i	>57
CN(C(=O)c1coc(=O)c2ccccc12)c1ccc(F)cc1	i	>57
COC(=O)c1cn(NC(=O)c2ccc3c(c2)OCO3)c(=O)c2ccccc12	i	>57
O=C(CSc1nc2ccccc2o1)NCc1n[nH]c(=O)c2ccccc12	i	>57
CCc1ccc(NC2=NC(C(=O)c3ccccc3)CC(=O)N2)cc1 (centres undefined)	i	>57
CN1C2C=C3C(C#N)=C(N)C(C#N)(C#N)[C@@H](c4ccsc4)[C@@H]3C1CC2 (some centres undefined)	.	>25.6
OCCNc1nc2ccc(Cl)cc2[nH]1	i	>57
COc1ccccc1N1CCN(CC(O)COc2ccc3c(C)cc(=O)oc3c2)CC1 (centres undefined)	i	>57
Cc1cccc(OCCC(=O)Nc2ccc(S(=O)(=O)N3CCCC3)cc2)c1	i	>57
O=C(Cc1c[nH]c2ccccc12)N1CCc2ccccc21	i	>57
Cc1ccc(C)n1NC(=O)c1ccco1	i	>57
COc1ccc2cc(C)c(SCC(=O)Nc3cc(C)on3)nc2c1	i	>57
OC[C@@H]1O[C@@H](n2cnc3cncnc32)[C@@H](O)[C@H]1O	i	.
CCOc1ccc(CNc2ccc3c(c2)ncn3C)cc1	i	>57
O=C1c2ccccc2C(=O)c2c1ccc(C(=O)O)c2-c1ccc2ccccc2c1	i	.
COc1ccc(S(=O)(=O)N2CCN(C(=O)NCc3ccccc3)CC2)cc1	i	>57
Cc1cc(N/C=C/C(=O)c2cccc3ccccc23)no1	.	9.31*
O=C(Nc1ccn(-c2ccccc2)n1)c1ccc(S(=O)(=O)N2CCCCCC2)cc1	i	>57

Structures listed so far with a COOH group:
SMILES	TsaE inh	Bst PK mod
Cc1ccc(CN2CCNC(=O)C2CC(=O)O)cc1 (centres undefined)	i	.
O=C(O)CC(c1ccccc1)n1cccc1 (centres undefined)	i	>57
O=C1c2ccccc2C(=O)c2c1ccc(C(=O)O)c2-c1ccc2ccccc2c1	i	.

(listing goes on)
SMILES	TsaE inh	Bst PK mod
Cc1ccc(Cl)cc1N1CCN(C(=O)C2CCN(S(=O)(=O)c3c(C)nn(C)c3C)CC2)CC1	i	>57
Nc1ccccc1-c1nc2ccccc2[nH]1	i	.
CCOC(=O)/C=C(\C)Sc1cc(=O)oc2ccccc12	i	>57
Nc1nsnc1C(=O)NCCO	i	>57
COc1ccc(C(=O)Cn2c(Br)nc3c2c(=O)n(C)c(=O)n3C)cc1OC	.	>25.6
O=C(O)C1C2C=CC(C2)C1C(=O)Nc1cccc(F)c1 (centres undefined)	i	>57
Cc1cc(C)nc(SCCC(=O)N(C)C)n1	i	>57
COc1cc2c(C(=O)N3CCN(C4CCCCC4)CC3)cn(CC(C)C)c(=O)c2cc1OC	i	>57
COc1ccc(OC)c(NC(=O)CSc2nnc(CCCO)n2-c2ccccc2)c1	i	>57
COc1ccc(Oc2ncc3nc(-c4ccc(F)cc4)c(=O)n(Cc4cccs4)c3n2)cc1	i	.
COc1ccccc1CNC(=O)C1CCN(S(=O)(=O)c2c(C)noc2C)CC1	i	>57
COc1cc(C2CC(C(F)(F)F)n3ncc(C(=O)O)c3N2)cc(OC)c1OC (centres undefined)	.	>25.6
CCC(=O)N1CCc2cc(S(=O)(=O)N3CCc4ccccc43)ccc21	i	>57
CC(=O)N1CCN(c2ccc(S(=O)(=O)N3CCCCC3)cn2)CC1	i	>57
COc1ccccc1OC(C)C(=O)O (centres undefined)	i	>57
COc1ccc(CC(=O)Nc2cccc(-c3nnc(-c4cccc(C)c4)o3)c2)cc1OC	i	.
COc1ccc(NC(=O)N2CCCC3(CCN(C(=O)c4cc(C(F)(F)F)cc(C(F)(F)F)c4)CC3)C2)cc1	i	.
CN(C)S(=O)(=O)c1ccc(C(=O)N2CCC(c3nc4ccccc4o3)CC2)cc1	i	>57
Cn1c(=O)c2c(nc(SCC(=O)N3c4ccccc4CCc4ccccc43)n2C)n(C)c1=O	i	>57
Cc1cc(Cl)ccc1OCC(=O)Nn1c(C)ccc1C	i	>57
CCn1nc(C(=O)OCC(=O)N2CCc3ccccc32)c2ccccc2c1=O	i	.
CC(C)C(NC(=O)c1cccc(S(=O)(=O)N2CCOCC2)c1)C(=O)NCCc1ccccn1 (centres undefined)	i	>57
O=C(CSc1ncccc1-c1nc2ccccc2[nH]1)N1CCN(c2ccccc2F)CC1	i	.
CCCC[C@H]1C[C@@H]1[C@@H]1N(C(C)=O)[C@H](c2cccc(OC)c2)CC12CC2	i	.
CCC(C)NC(=O)c1c(C)cc(=O)oc1C (centres undefined)	i	>57
Cc1ccc(Cn2c(Sc3nccc(C)n3)nc3c2c(=O)[nH]c(=O)n3C)cc1	i	>57
Cc1c(C(=O)NC2=NCCS2)oc2ccccc12	i	>57
Cc1cc(C)c(S(=O)(=O)Nc2nnc(C)s2)c(C)c1	i	.
CCc1nnc(SCC(=O)Nc2ccc(C(C)=O)cc2)nc1CC	i	>57
CCC1C(O)=C(c2ccccn2)C(=N)N1c1ccccc1 (centres undefined)	i	>57
CC(C)NC(=O)N1CC[C@@]2(CCCN(S(C)(=O)=O)C2)C1	i	.
CCOc1ccc(Oc2nc(Nc3ccc(C)cc3)nc(N(C)C)n2)nn1	i	>11.4
CC(Sc1nnc(N)s1)c1ccccc1Cl (centres undefined)	i	.
CCN(CC)CCCN1C(=O)C(O)=C(C(=O)c2ccc(C)o2)C1c1cccs1 (centres undefined)	i	.
Cc1ccc(NC(=O)CS(=O)(=O)c2c[nH]c3ccccc23)c(C)c1	i	?
NCC(=O)Nc1ccccc1	i	.
COCC(C)n1c(C)cc(C(=O)COC(=O)c2c(C)nn(-c3ccccc3)c2C)c1C (centres undefined)	i	>57
C=CCNC(=O)c1sc(=S)n(-c2ccc(C(=O)OCC)cc2)c1N	i	>57
O=c1[nH]c(N2CCOCC2)nc2c1CCCC2	i	>57
COc1ccc(-c2nc(C#N)c(NC(C)c3ccccc3)o2)cc1OC (centres undefined)	i	>57
Cc1ccc(S(=O)(=O)NC2(C(F)(F)F)NC(=O)N(C)C2=O)cc1 (centres undefined)	i	>57
O=C(c1cccnc1)N1CCN(Cc2ccc3c(c2)OCO3)CC1	i	>57
O=C(CSc1ccccn1)c1ccc2c(c1)OCO2	i	.
CC(=O)NCCNc1ncnc2ccc(-c3ccc(C(=O)N(C)C)cc3)cc12	i	.
CCCc1cc(=O)n2[nH]cnc2n1	i	>57
O=C(Cc1ccccc1)N[C@H](c1ccccc1)P(=O)(O)CO	i	>57
CCOC(=O)C1Cc2c([nH]c3ccccc23)CN1 (centres undefined)	i	>57
CN(C)S(=O)(=O)N1CCN(C(=O)N2CCCCC2)CC1	i	>57
O=S(=O)(c1ccc(S(=O)(=O)N(Cc2ccc(F)cc2)C2CCCC2)cc1)N1CCCC1	i	>57
CCCN(CCC)S(=O)(=O)c1ccc2c(c1)CCCN2C(C)=O	i	>57

The listing continues:
SMILES	TsaE inh	Bst PK mod
O=c1c(-c2nc3ccccc3o2)c2oc3ccccc3n2c2ccccc12	i	5.41*
CCCS(=O)(=O)N1CCCC(C(=O)NCCCN(C)c2ccccc2)C1 (centres undefined)	i	>57
O=c1cc(-c2ccc(O)c(O)c2)oc2cc(O)cc(O)c12	i	.
[O-][N+]12CCN(CC1)c1ccccc12	i	>57
CCOC(=O)Cn1cnc2sc3c(c2c1=O)CCC3	i	>57
O=C(c1c(F)cccc1F)N1CCN(c2ccccc2F)CC1	i	>57
O=C(C1CCN(S(=O)(=O)N2CCOCC2)CC1)N1CCN(c2ccccc2)CC1	i	>57
CC(C)C(=O)NCCn1ccc2ccccc21	i	>57
C=CCn1c(N)c(C(=O)OCCC)c2nc3ccccc3nc21	i	>57
CC1(C)C(=O)OC(C(=O)c2ccccc2)C(C)(C)C1=O (centres undefined)	i	.

Overlap with the part before: 7 entries; new compounds follow.
SMILES	TsaE inh	Bst PK mod
[O-][N+]12CCN(CC1)c1ccccc12	i	>57
CCOC(=O)Cn1cnc2sc3c(c2c1=O)CCC3	i	>57
O=C(c1c(F)cccc1F)N1CCN(c2ccccc2F)CC1	i	>57
O=C(C1CCN(S(=O)(=O)N2CCOCC2)CC1)N1CCN(c2ccccc2)CC1	i	>57
CC(C)C(=O)NCCn1ccc2ccccc21	i	>57
C=CCn1c(N)c(C(=O)OCCC)c2nc3ccccc3nc21	i	>57
CC1(C)C(=O)OC(C(=O)c2ccccc2)C(C)(C)C1=O (centres undefined)	i	.
CCn1nc(C(=O)NCCc2ccc(S(N)(=O)=O)cc2)c2ccccc2c1=O	i	>57
COC(=O)c1cc(N2C(=O)C3C(C2=O)C2(C)C=CC3(C)O2)ccc1Cl (centres undefined)	i	.
CCOC(=O)c1cnn(-c2ccccn2)c1N	i	i
N#CC1=C(N)N(c2ccccc2)C(c2ccccc2)C1(C#N)C#N (centres undefined)	.	>25.6
CSc1nc(N)nc(SCC(=O)c2ccc(C)cc2)c1C#N	i	>57
CN1CCN(CCCNC(=O)Cn2nc(-c3ccccc3)ccc2=O)CC1	i	>57
CC1(C)CC(=O)C=C(Nc2ccccc2NC(=O)c2cnccn2)C1	i	>57
COCC(C)NC(=O)NC(=O)c1ccc(Cl)cc1 (centres undefined)	i	>57
COC(=O)c1ccc(CSc2nnc(CNC(=O)c3cccs3)o2)o1	i	>57
CNc1oc(-c2ccco2)nc1C#N	i	>57
O=C(O)c1ccc(COc2ccccc2Cl)cc1	i	>57
CC(=O)c1c(C)c[nH]c1C	i	>57
Cc1nc(NC(CC(C)C)C(=O)O)c2nc(C)oc2n1 (centres undefined)	i	>57
Cc1cc2occ(CC(=O)O)c2cc1C	i	>57
CCOC(=O)C1CCN(Cc2ccccc2C(F)(F)F)CC1	i	>57
COC(=O)Cn1nc(-c2ccccc2)c2ccccc2c1=O	i	>57
CCNC(=O)CN(C1CCCCC1)S(=O)(=O)c1ccc(F)cc1	i	.
CN1CCC2(CC1)CCN(S(=O)(=O)c1ccccc1)CC2	i	.
CCOC(=O)C1=C(CN2CCSCC2)NC(=O)NC1c1cc(C)ccc1C (centres undefined)	i	>57
Cn1c(NC(=O)c2cccc(Cn3cc(Cl)cn3)c2)nc2ccccc21	i	>57
COc1ccc(/C(O)=C2/C(=O)C(=O)N(CCN(C)C)C2c2ccc(F)cc2)cc1Cl (centres undefined)	i	>57
O=C1CC(c2cc3c(cc2Br)OCO3)C2=C(CCCC2=O)N1 (centres undefined)	i	>57
COC1=CC(=O)C[C@@H](C)[C@@]12Oc1c(Cl)c(OC)cc(OC)c1C2=O	i	.
Cc1nc2ccc(S(=O)(=O)NC(C(=O)N3CCn4c3nc3ccccc34)C(C)C)cc2s1 (centres undefined)	i	.
Cc1[nH]n2c(=O)c3c(nc2c1-c1ccccc1)CCC3	i	>57
O=c1cc(-c2cccc(O)c2)oc2cc(O)ccc12	i	.
CCOC(=O)C1=C(C)NC2=C(C(=O)CCC2)C1c1cccnc1 (centres undefined)	i	>57
O=C(c1ccc(S(=O)(=O)N2CCOCC2)cc1)N1CCN(c2ccc(F)cc2)CC1	i	.
CCc1cccc(C)c1NC(=O)CCCC(=O)O	i	.
COc1ccccc1NC(=O)CSc1nnc(Cc2ccccc2)o1	i	>57

Entries of single compounds, quoted from the list. Values in the order: TsaE inh, Bst PK mod
`COC1=CC(=O)C[C@@H](C)[C@@]12Oc1c(Cl)c(OC)cc(OC)c1C2=O` as listed: i, .
`O=c1cc(-c2cccc(O)c2)oc2cc(O)ccc12` as listed: i, .

Other results follow:
SMILES	TsaE inh	Bst PK mod
CC1C2CC(C(S(=O)(=O)N3CCOCC3)C2=O)C1(C)C (centres undefined)	i	>57
Cc1ccc(S(=O)(=O)NCCN=C(CN2CCOCC2)NS(=O)(=O)c2ccc(C)cc2)cc1	i	>57
Cc1cc(NC(=O)COc2cccc(C)c2C)no1	i	.
O=C(c1csc(Nc2ccccc2Cl)n1)N1CCCC1	i	>57
COc1ccccc1NC(=O)C1=C(C)Nc2ncnn2C1c1ccccc1C (centres undefined)	i	>57
COCCn1c(Cc2ccccc2)nnc1SCC(=O)NC(C)(C)C	i	>57
O=C(O)CN1CCOCCOCCN(CC(=O)O)CCOCCOCC1	i	>57
CC1(C)N=C(N)N=C(N)N1c1cccc(OCc2cccc(N)c2)c1	i	.

Screening results from PubChem BioAssay.
